RN4220 kill – kills Staphylococcus aureus RN4220; S. aureus RN4220 growth, OD600, 16 h; inhibition, % (test concentration not listed); AID 1259311; hit rate 0.33% among 330,000;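 active = z-score of -3 or lower and OD600 up to 0.18 on both plates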;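 also: plate controls were untreated cells for no effect and reference antibiotic for full effect; stock transfer was 100 nL into about 80 µL; one replicate is shown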
Mtb hypoxia rep – inhibitors of hypoxia-regulated fluorescent reporter in Mycobacterium tuberculosis; M. tuberculosis hypoxia-regulated fluorescent reporter, fluorescence; fluorescence inhibition, % (no concentration beside the values); hit rate 0.1% among 300,000; AID 1159583;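 active = 35 to 45% if threefold the growth effect, above 45% if 1.5-fold the growth effect; inactive = the rest, general growth blockers included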;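 also: wells of about 50 µL received 100 nL stock; 0% = vehicle wells and 100% = reference inhibitor wells; whole bacteria with a GFP reporter of the hypoxia response; strong numbers were not always called active; many hits fall short of the cut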
Sa ugtP lethal – compounds lethal to S. aureus RN4220 ugtP deletion mutant; OD600 growth, 16 h; some inactives read as strong as hits; AID 1259309; growth inhibition, % (test concentration not listed); hit rate 0.54% among 330,000;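 active = z-score under -3 and OD600 up to 0.15 on both plates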;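 also: plate controls were untreated wells for no effect and antibiotic for full effect; wells of about 80 µL received 100 nL stock; the first replicate is given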
PrP UTR inh – inhibition of PrP 5' UTR reporter expression; cell-based PrP 5' UTR mRNA reporter, plate reader; inhibition, % (concentration not given with the values); hit rate 0.35% among 340,000;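 active = every replicate at 50% or more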;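 also: 0 = median of the neutral control wells; tested in H4 reporter cells; numbers are from one replicate; inactives centre near -14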
Autofluor counter – flagged as autofluorescent in microsphere protease counterscreen. compound autofluorescence counterscreen, microsphere flow cytometry; stronger effect = higher value. fluorescence intensity (test concentration not listed). hit rate 3.1% among 360,000;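 active = at least 3 SD above the mean of all compounds, about 16000 in these data; inconclusive = too few beads counted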;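 also: 100 nL of 1 mM stock went into each well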
BJeLR lethal – BJeLR cell viability loss; BJeLR (HRASV12) viability, CellTiter-Glo ATP luminescence, 48 h; reference of the scale not given here; inhibition, % (test concentration not listed); hit rate 0.17% among 300,000;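 active = replicate mean above 50%; inconclusive = above 50% but judged a plate artefact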;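 also: 50 nL library stock added to about 25 µL; numbers are from one replicate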
Mtb hypoxia rep growth – recorded beside Mtb hypoxia rep, whose call it bears; growth inhibition, %; measured here: M. tuberculosis growth (absorbance);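 0% = vehicle and 100% = reference antibiotic; read after six days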
Active calls of the source: *; ? = inconclusive; / = no result given; & = joins results of further samples.

SMILES	RN4220 kill	Mtb hypoxia rep	Mtb hypoxia rep growth	Sa ugtP lethal	PrP UTR inh	Autofluor counter	BJeLR lethal
COc1ccc(Cl)cc1C(=O)NCc1cn(C)nc1C	0.0	/	/	8	-20	4759	15
COc1ccc(C(C)=O)cc1COc1ccc(Cl)c(C)c1	2.3	8	2	60	-32	5924	-12
CCn1cc(C(=O)Nc2ccc(NC(=O)c3ccco3)cc2)c(=O)c2ccc(C)nc21	3.6	14	11	4	-10	6617	-8
COc1ccc(CCN(C)C2CCCN(C(=O)Cn3cccn3)C2)cc1OC (configuration not stated)	-1.4	1	-7	-2	3	4495	5
Clc1ccc(-c2nc3cc(CN4CCCCC4)ccc3o2)cc1	-2.0	10	15	6	-53	4267	8
COc1ccccc1S(=O)(=O)Cc1ccc(C(=O)N2CCN(c3ccccn3)CC2)o1	-0.5	/	/	6	-41	5069	/
O=C(Cn1c(NCCCl)nc2ccccc21)c1ccc(Br)cc1	0.0	-1	2	4	-6	/	-13
Brc1ccc(-c2nnc(-c3ccccc3)c(N3CCSCC3)n2)cc1	-4.7	-72	-3	1	-7	9103	-2
O=S(=O)(Nc1nc(CN2CCOCC2)nc2sc3c(c12)CCCC3)c1cc(F)ccc1F	8.6	8	6	-6	-10	7939	-5
CCCOC(=O)c1ccc(NC(=O)C(CC)CC)cc1	4.0	7	8	12	-25	2084	-17
CCOC(=O)NC(=O)C(=CNc1ccccc1C)C(=O)NC(=O)OCC	1.8	0	-2	-1	-9	2108	-5
Cc1cc(C)c(S(=O)(=O)Nc2cccc(S(=O)(=O)N3CCOCC3)c2)c(C)c1	4.8	11	-1	4	-11	5997	0
Cc1ccc(S(=O)(=O)N2CCN(C(=O)/C=C/c3ccccc3)CC2)cc1C	2.2	12	-1	6	-7	?	/
COc1cc(/C=C/C(=O)OCC(=O)NC(=O)NC(C)(C)C)ccc1O	-2.7	-15	8	-10	1	4613	12
CC(NC(=O)CC(O)(C(F)(F)F)C(F)(F)F)c1ccccc1 (configuration not stated)	10	6	9	-3	-8	7804	6
Cc1nc2cc3ccccc3cc2s1	6.5	21	15	-2	-11	3629	/
Cc1ccc(NC(=O)Cn2nnc(C(=O)NCc3cccs3)c2N)cc1F	0.1	7	7	1	-25	5140	5
CCCCC#Cc1cncc(C(=O)NN=Cc2ccccc2)c1	3.9	-6	2	0	/	/	/
O=C(Cc1cc(=O)[nH][nH]1)NN=C/C=C/c1ccccc1	2.5&-5.9	-4&5	2&5	-8&-8	/	/	/
COc1ccc(C(C)=O)cc1COc1nc(C)nc2ccccc12	4.9	9	15	9	-5	4387	-10
CCOC(=O)c1c(NC(=O)CCS(=O)(=O)c2ccccc2)sc2c1CCN(C)C2	1.6	7	15	4	-21	7135	2
CCCc1ccc(C(C)NC(=O)c2cnccn2)cc1 (configuration not stated)	-20	/	/	5	3	3359	4
O=c1c2ccccc2nc(-c2ccco2)n1-c1ccccc1	-9.0	-1	6	-9	-9	2904	4
O=C(CSc1nnc(-c2cccs2)n1Cc1ccccc1)NCc1ccc2c(c1)OCO2	8.1	2	8	3	-17	2936	-7
O=C(/C=C/c1ccccc1[N+](=O)[O-])Nc1cc(S(=O)(=O)N2CCOCC2)ccc1N1CCOCC1	3.7	18	37	2	-6	3758	/

A few values from the list.
Under Mtb hypoxia rep growth, `O=S(=O)(Nc1nc(CN2CCOCC2)nc2sc3c(c12)CCCC3)c1cc(F)ccc1F` reads 6
Under Sa ugtP lethal, `CCCc1ccc(C(C)NC(=O)c2cnccn2)cc1` (configuration not stated) reads 5
Under RN4220 kill, `COc1ccc(C(C)=O)cc1COc1ccc(Cl)c(C)c1` reads 2.3
Under PrP UTR inh, `O=C(Cn1c(NCCCl)nc2ccccc21)c1ccc(Br)cc1` reads -6

(list continues)
SMILES	RN4220 kill	Mtb hypoxia rep	Mtb hypoxia rep growth	Sa ugtP lethal	PrP UTR inh	Autofluor counter	BJeLR lethal
CC1CCN(S(=O)(=O)c2ccc(NC(=O)C3CC3)cc2)CC1	2.3	8	0	1	-3	3472	-5
Brc1ccc(C2N3CCCN23)cc1 (configuration not stated)	3.6	1	0	-2	-13	2539	-3
Cn1c(=O)oc2cc(S(=O)(=O)N3CCCC3)ccc21	3.0	-2	5	-1	-16	5625	-9
O=C(O)Cn1ncn(-c2ccc(OC(F)(F)F)cc2)c1=O	6.1	-1	0	5	-19	3848	-5
COc1ccc(CC(=O)NC(C)c2nnc(SCCOc3ccc(OC)cc3)n2C)cc1 (configuration not stated)	0.9	1	0	5	6	16217*	-5
O=C(c1cncc(Br)c1)N1CCCc2ccccc21	4.8	3	10	1	4	3511	0
CCCC(=O)Nc1nc(C)c(-c2csc(Nc3ccc(Cl)cc3)n2)s1	-11	5	6	38	-8	3007	8
COc1ccccc1N1CCN(C(=O)Cc2cccs2)CC1	7.7	9	8	0	-6	22449*	-1
CCN(CC)S(=O)(=O)c1cc(NS(=O)(=O)c2c(Cl)cccc2Cl)ccc1C	24	12	0	-1	-15	2684	3
Cc1c2cnn(CC(=O)NCCCN3CC(C)CC(C)C3)c(=O)c2c(C)n1Cc1ccccc1Cl (configuration not stated)	-0.8	-5	-2	-2	-23	5316	13
CCC(C)N1CNc2c(c(=O)[nH]c(=S)n2-c2cccc(C)c2)C1 (configuration not stated)	4.7	-12	4	-5	-3	3672	/
CCOP(=O)(Cc1cc(C#N)oc1C)OCC	2.0	3	2	0	-4	2445	-12
O=C(/C=C/c1cccc(F)c1)NC1CCN(Cc2ccccc2)CC1	-1.5	-4	9	1	-23	4152	9
COc1ccccc1NC(=O)CN1CC(=O)Nc2ccccc21	2.0	5	10	7	-19	3782	5
Cc1cc(C)n(CC(=O)NNC(=O)c2ccc(S(C)(=O)=O)cc2)n1	4.2	-3	11	1	-63	3878	/
Cn1c(N)c(C(=O)c2ccc(Cl)c(S(=O)(=O)N3CCCCCC3)c2)c(=O)n(C)c1=O	9.9	17	9	-3	-3	3684	/
COc1cc(-c2noc(C)c2C=Cc2cccc([N+](=O)[O-])c2)cc(OC)c1OC	9.2	3	10	2	/	/	/
Cc1cccc(C)c1NC(=O)CSc1nnc(Cn2nnc(-c3ccccc3)n2)n1-c1ccccc1	1.5	2	7	-7	-22	19692*	0
Cn1c(Cc2ccccc2)nnc1SCC(=O)Nc1ccc2c(c1)OCCO2	1.2	9	3	9	-28	8561	-2
CNC(=S)N/N=C(\C)c1cccc([N+](=O)[O-])c1	/	/	/	/	-15	9542	-5
CCOC(CCc1c(C)nc(NC(C)=O)[nH]c1=O)OCC	0.7	3	-3	3	-8	4423	4
CCCCN1C(N)=NCC1Cc1ccccc1 (configuration not stated)	6.2	20	16	3	/	/	/
CN(C(=O)COC(=O)c1cn(-c2ccccc2)nc1-c1ccccc1)C1CCS(=O)(=O)C1 (configuration not stated)	13	-7	-4	10	-8	4152	0
Cc1ccc(NC(=O)C2CCCN(c3cnccn3)C2)c(C)c1 (configuration not stated)	3.7	6	10	8	-6	5015	1
COc1ccccc1CNC(=O)c1cc(C(C)C)nc2ccccc12	2.4	8	21	7	-9	5625	-5

The last 2 compounds of the section above are carried over, then new ones follow.
SMILES	RN4220 kill	Mtb hypoxia rep	Mtb hypoxia rep growth	Sa ugtP lethal	PrP UTR inh	Autofluor counter	BJeLR lethal
Cc1ccc(NC(=O)C2CCCN(c3cnccn3)C2)c(C)c1 (configuration not stated)	3.7	6	10	8	-6	5015	1
COc1ccccc1CNC(=O)c1cc(C(C)C)nc2ccccc12	2.4	8	21	7	-9	5625	-5
C/C(=N/Oc1nc(C)cc(C)n1)c1ccc(Br)cc1	/	/	/	/	5	2705	-8
CCCC(=O)Nc1c2c(nn1-c1ccc([N+](=O)[O-])cc1)CS(=O)(=O)C2	3.2	-4	15	4	-11	3554	5
COc1ccccc1OCC(=O)NC1CCSc2ccccc21 (configuration not stated)	-4.9	3	2	-10	-7	4102	/
CC(=O)c1ccc(NC(=O)N2CCCC(C(=O)c3ccc4c(c3)OCO4)C2)cc1 (configuration not stated)	-1.1	-11	2	-1	4	1972	2
OC(C1=CC(=Cc2ccncc2)c2ccccc21)c1ccncc1 (configuration not stated)	24	20	7	-16	-11	3822	/
CC(=O)N1CCN(S(=O)(=O)c2cccc(C(=O)NCc3ccc(F)cc3)c2)CC1	4.5	3	5	8	3	3215	/
Cc1csc(CNc2ncnc3ccc(-c4ccc5c(c4)OCCO5)cc23)c1	-3.8	-2	5	-13	-10	2849	/
COCCCN(CC(=O)Nc1ccc(N2CCOCC2)cc1)S(=O)(=O)c1ccccc1	1.3	11	-4	0	-16	4283	-16
CCOC(=O)C1CCN(C(=O)c2cccc(S(=O)(=O)NCc3ccccc3)c2)CC1	-1.3	-1	-1	-4	-19	5229	/
CCCCOc1ccc(N(CC(=O)NC(C)(C)CC)C(=O)CCC(=O)Nc2ccccn2)cc1	11	9	12	4	-20	3856	-4
CN(c1ccccc1)S(=O)(=O)c1cc(C(=O)Nc2nc3ccccc3[nH]2)ccc1Cl	0.5	6	6	-15	-18	2548	-7
CC(=O)NCCc1cnc[nH]1	-1.8	/	/	-18	-8	5220	2
COc1ccc(-n2c(C)cc(C(=O)Cn3nnc4ccccc4c3=O)c2C)cc1	-9.1	-10	6	0	-24	9025	-4
CCOCCCNC(=S)N1CCN(Cc2ccco2)CC1	4.8	11	4	2	-22	4574	3
O=c1[nH]c(=O)n(CC2CCCO2)c(O)c1/C=C1\C=Nc2ccccc21 (configuration not stated)	0.7&5.4	2&6	8&-10	2&0	-3&2	2779	-3&-1
C=CCn1c(SCC(=O)NCC2CCCO2)nc2scc(-c3ccc(OC)cc3)c2c1=O (configuration not stated)	-0.8	0	-5	6	-8	5459	-7
O=C(CCSCCc1ccccn1)Nc1cc(F)ccc1F	1.2	-7	-2	2	-14	2521	-4
COc1cc(C(=O)NCCCCc2ccccc2)cc(OC)c1OC	2.0	-5	-6	0	12	/	-7
O=C(CC(C(=O)O)P(=O)(c1ccccc1)c1ccccc1)c1ccccc1 (configuration not stated)	3.6	10	11	12	-16	4267	1
COc1ccc(COCC(O)CN2CCCC(C(F)(F)F)C2)cc1 (configuration not stated)	/	/	/	/	-19	4885	-11
Cc1c(C(=O)NCCn2ccc3ccccc32)cccc1[N+](=O)[O-]	14	4	7	16	-23	5521	6
Cc1[nH]nc2nc(SCC(=O)NCCC3=CCCCC3)n(-c3ccc(Br)cc3)c(=N)c12	8.5	16	-5	-13	-7	5323	6
O=C(NNC(=O)c1cc(Cl)ccc1O)c1cccc(S(=O)(=O)N2CCOCC2)c1	11	0	-1	0	-23	/	5
O=C1/C(=C/c2ccco2)SC(=S)N1CC1CCCO1 (configuration not stated)	/	/	/	/	-37	4296	8
CC1=C(C)CC(C(=O)NNC(=O)c2cccc(Cl)c2)C(C(=O)O)C1 (configuration not stated)	3.1	11	11	6	-12	2393	12

Additional entries follow:
SMILES	RN4220 kill	Mtb hypoxia rep	Mtb hypoxia rep growth	Sa ugtP lethal	PrP UTR inh	Autofluor counter	BJeLR lethal
CCCCN(C(=O)c1cccc(S(=O)(=O)N2CCN(C)CC2)c1)c1c(N)n(CCCC)c(=O)[nH]c1=O	3.3	-2	9	1	-4	6971	2
O=C(N/N=C/c1ccc([N+](=O)[O-])o1)c1ccc(NS(=O)(=O)c2cccs2)cc1	/	/	/	/	-6	4594	12
CCn1cc([N+](=O)[O-])c(C(=O)Nc2c(C)nn(Cc3cccc(F)c3)c2C)n1	-2.2	5	1	2	-19	2500	-2
ONC(=Nc1ccc(Cl)cc1)c1ccccc1Cl	2.5	3	15	-2	-23	6131	0
COC(=O)c1c(-c2ccc(OC)cc2)oc2ccccc12	1.8	6	3	28	-11	2944	-7
CC(OC(=O)c1ccc(NC(=O)CC#N)cc1)C(=O)NC(=O)NC1CCCCC1 (configuration not stated)	2.7	2	2	-4	-19	6083	2
CCSc1nc2sc3c(c2c(=O)n1-c1ccc(C)cc1)CCN(C)C3	-3.6	-6	14	39	/	4280	9
CCc1ccc(CNC(=O)C2CC(=O)N(C3CCCC3)C2)cc1 (configuration not stated)	4.3	1	-4	6	-23	5610	-2
O=C(O)c1c[nH]c2c(C(F)(F)F)cccc2c1=O	4.6	-7	20	-4	1	10164	-1
Cc1c(F)cccc1NS(=O)(=O)c1ccc2c(c1)c(=O)n(C)c(=O)n2C	11	5	6	0	-19	4137	4

Bioassay records as filed in PubChem.
